CCT modulator – High-Throughput Screening for Modulators of Cytosolic Chaperonin Activity. purified chaperonin ATPase assay, HTRF ADP detection, 30 min. activity change, % (concentration not given with the values), hits read low. 0.3% of 360,000 active. AID 651819, 2012; in the data active = activity change below about -30%; also: % is scaled to controls: 0 for no effect and ±100 for the full control effect
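We incubate TRiC, 40 or 20 nM final, with library compounds at 76 uM and 10 uM ATP for 30 min at 37 °C. ADP formed is detected with Transcreener HTRF reagents after 30 min at room temperature.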
EPAC1 antagonist – qHTS for Antagonist of cAMP-regulated guanine nucleotide exchange factor 3 (EPAC1): primary screen; Potency, µM (top dose mostly 115 µM), inactives show at the highest dose activity change, negative = inhibition, usual class: inhibitors; Rap guanine nucleotide exchange factor 3 (Homo sapiens), O95398; 0.14% of 360,000 active; EPAC1 GEF assay, Rap1b-BODIPY-GDP exchange fluorescence;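 also: potency is read from the fitted curve at half-maximal effect; plate controls were vehicle for no effect and positive control for full effect; nearly all actives have a fitted effect of over 50% in size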
Target sequence (O95398 whole entry, looked up): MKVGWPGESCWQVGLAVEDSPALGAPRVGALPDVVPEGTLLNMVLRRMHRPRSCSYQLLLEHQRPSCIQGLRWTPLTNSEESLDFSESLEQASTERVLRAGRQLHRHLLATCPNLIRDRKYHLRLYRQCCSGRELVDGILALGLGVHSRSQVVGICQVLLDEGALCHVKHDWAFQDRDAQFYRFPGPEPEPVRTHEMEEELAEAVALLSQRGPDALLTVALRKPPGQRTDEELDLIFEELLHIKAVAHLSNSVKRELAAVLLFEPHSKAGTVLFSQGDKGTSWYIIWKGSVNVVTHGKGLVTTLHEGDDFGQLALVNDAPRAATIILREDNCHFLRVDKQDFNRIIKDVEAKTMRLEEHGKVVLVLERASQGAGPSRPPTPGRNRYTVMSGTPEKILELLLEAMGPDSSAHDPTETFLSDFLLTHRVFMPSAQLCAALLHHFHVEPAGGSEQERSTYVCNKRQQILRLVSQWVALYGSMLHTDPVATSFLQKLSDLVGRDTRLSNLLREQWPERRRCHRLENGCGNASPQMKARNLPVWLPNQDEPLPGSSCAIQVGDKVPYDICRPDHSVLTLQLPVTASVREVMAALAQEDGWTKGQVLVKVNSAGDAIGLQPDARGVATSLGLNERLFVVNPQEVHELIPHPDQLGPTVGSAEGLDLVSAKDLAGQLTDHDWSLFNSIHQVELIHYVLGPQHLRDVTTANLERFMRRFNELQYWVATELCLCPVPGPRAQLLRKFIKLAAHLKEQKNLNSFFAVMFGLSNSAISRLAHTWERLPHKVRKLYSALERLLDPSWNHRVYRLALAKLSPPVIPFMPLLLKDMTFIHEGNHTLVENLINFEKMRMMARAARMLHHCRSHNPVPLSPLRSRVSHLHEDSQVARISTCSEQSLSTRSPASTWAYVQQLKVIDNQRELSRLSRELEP
IL2 activator – qHTS of IL-2 Activators; IL-2 activation reporter assay, cell-based qHTS; stimulated with anti-CD3/CD4/CD28 beads; in transgenic mouse T cells; AID 652025, 2013; activation, % (series mostly up to about 46 µM); 0.065% of 360,000 active; in the data active = activation above about 50%; inconclusive = mostly about 30% to 49%; also: 0% is about no effect
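Unstimulated transgenic mouse T cells, 750 per well, received compound and, after 60 minutes, anti-CD3/anti-CD4 bead plus anti-CD28 stimulation. EGFP and DsRed were quantified after 18 hours.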
PI5P4Ka inh – qHTS for Inhibitors of phosphatidylinositol 5-phosphate 4-kinase (PI5P4K). Phosphatidylinositol 5-phosphate 4-kinase type-2 alpha (Homo sapiens), P48426. PI5P4Kalpha enzyme, ADP-Glo luminescence, 60 min; hits give low values. max response, %. 1.2% of 330,000 active. AID 652105, 2013; active = max response of -50% or lower; inconclusive = between -30% and -50%; inactive = -30% or higher; also: value at the top dose of about 77 µM; % is scaled to controls: 0 for no effect and ±100 for the full control effect
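PI5P4Kalpha ADP-Glo assay; 5 microM ATP final; 60 min RT reaction; HEPES pH 7.4/EGTA/CHAPS, 5% DMSO; controls lacking substrate or enzyme; luminescent end-point.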
EPAC1 agonist – qHTS for Agonist of cAMP-regulated guanine nucleotide exchange factor 3 (EPAC1): primary screen | 0.073% of 360,000 active | Potency, µM (titrated, usually from 154 µM), inactives show at the top dose activation, most hits filed as activators | EPAC1 agonist qHTS, biochemical assay; response scale: 100% = response to 6.5 mM cAMP | Rap guanine nucleotide exchange factor 3 (Homo sapiens), O95398; also: potency is read from the fitted curve at half-maximal effect; nearly all actives have a fitted effect of over 60% in size
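Compounds were pinned as a concentration titration into mixtures of EPAC1 (100 nM), BODIPY-GDP-loaded Rap1B (250 nM) and GDP (50 uM). After 5 min at room temperature, fluorescence was followed for 30 min; activity was scaled to 6.5 mM cAMP.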
PLK1 PBD inh – qHTS for Inhibitors of PLK1-PDB (polo-like kinase 1 - polo-box domain): Primary Screen; 2.8% of 360,000 active; Plk1 PBD binding of FITC phosphopeptide, fluorescence polarization; AID 720504, 2013; Potency, µM, for inactives: max response, negative = inhibition, usual class: inhibitors; Serine/threonine-protein kinase PLK1 (Homo sapiens), P53350; also: potency is read from the fitted curve at half-maximal effect; series mostly up to about 57 µM; % is scaled to controls: 0 for no effect and ±100 for the full control effect; nearly all actives have a fitted effect of over 65% in size
EPAC2 agonist – qHTS for Agonist of cAMP-regulated guanine nucleotide exchange factor 4 (EPAC2): primary screen; Rap guanine nucleotide exchange factor 4 (Homo sapiens), Q8WZA2; EPAC2 activation, biochemical qHTS; response scale: 100% = 6.5 mM cAMP response; Potency, µM (top dose mostly 154 µM), for the others: top-dose activation, usual class: activators; 0.079% of 360,000 active; AID 720711, 2013; also: potency is read from the fitted curve at half-maximal effect; nearly all actives have a fitted effect of over 50% in size
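Readout is BODIPY fluorescence (480 nm excitation, 540 nm emission), which falls as labeled GDP is exchanged off Rap1B. EPAC2 at 100 nM acted on 250 nM RAP1B-BODIPY-GDP with 50 uM GDP present.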
Active calls of the source: *; ? = inconclusive; · = not tested or not shown; [ ] = remark or other dose. Unless noted, calls follow the shape of the dose curve; as a rule, active = well fitted curve in the direction sought with a large enough effect; inconclusive = small, poorly fitted or top-dose-only effect, or another doubt; inactive = no such curve, though single readings can be large; an effect the other way counts as inactive or inconclusive. The list is partial; rates above refer to the full screens.

SMILES	CCT modulator	EPAC1 antagonist	IL2 activator	PI5P4Ka inh	EPAC1 agonist	PLK1 PBD inh	EPAC2 agonist
COc1ccc(/C=C/C(=O)OCC(=O)N2CCN(S(=O)(=O)c3ccc(C)cc3C)CC2)cc1OC	-0.9	-13%	0.1	-2	6%	-5%	11%
CCOc1ccc(C(=O)NC2C(=O)N3C(C(=O)O)=C(COC(C)=O)CSC23)cc1OCC (stereo unspecified)	-1.3	14%	-6.2	-3	1%	-23%	11%
O=C(O)c1c2c(nc3ccccc13)/C(=C/c1ccc(O)cc1)CCC2	3.4	-14%	1.0	1	-7%	-18%	-1%
CCOc1cc(/C=C2\CCCc3c2nc2ccccc2c3C(=O)O)ccc1OC	1.8	408%[activator]	-0.5	-1	100µM*	3µM*	100µM*
COc1cc(/C=C(\C#N)c2nc3ccccc3[nH]2)cc(OC)c1O	1.6	4%	7.3	?	11%	110%[activator]	10%
Cc1onc(-c2ccccc2)c1C(=O)N1CCCC(C)(C(=O)NS(=O)(=O)C2CC2)C1 (stereo unspecified)	-1.5	10%	-0.2	-4	5%	-9%	6%
CC(=O)Nc1cc(-c2cccc(CO)c2)cn2c(-c3ccc(C(C)=O)cc3)cnc12	-2.8	2%	-0.1	-13	1%	-16%	14%
C=CCn1c(=S)[nH]c2scc(-c3ccco3)c2c1=O	0.8	?	1.8	-84*	0%	27µM*	-2%
Cc1cc(C(=O)CCC(=O)NNC(=O)c2ccccc2O)c(C)s1	0.3	1%	-1.0	?	2%	-11%	-3%
COc1ccccc1Cc1c(-c2ccco2)nc2ccc(C)cn12	0.6	-10%	-0.7	-19	14%	-18%	15%
Cc1occc1-c1nnc(SCC(=O)NCc2ccco2)n1CC(C)C	0.7	-10%	-1.1	-13	5%	?	11%
CCOc1ccc(C(=O)CCC(=O)N2CCN(c3ccccc3O)CC2)cc1	-2.3	0%	1.3	-28	4%	-11%	-11%
CN1Cc2sc(NC(=S)NC(=O)c3ccccc3)c(C#N)c2CC1(C)C	1.4	-21%	9.0	?	10%	13µM*	3%
O=C(c1ccc(Br)cc1)C(CN1CCOCC1)c1ccccc1 (stereo unspecified)	-4.2	?	-5.5	-7	4%	?	13%
CCOc1cccc(/C=C2/NC(=O)N(CC(=O)Nc3cccc(C)c3)C2=O)c1O	-4.2	-8%	-0.6	2	6%	-23%	11%
CCCCOc1ccc(C(=O)CCN2CCOCC2)cc1	-5.7	-14%	-0.5	-2	11%	24µM*	15%
Cc1noc(N)c1C1(O)C(=O)N(C(C)C)c2ccccc21 (stereo unspecified)	1.4	14%	0.9	3	5%	1%	11%
Nc1nc2c(c(=O)[nH]1)C(c1ccccc1)C1=C(N2)c2ccccc2C1=O (stereo unspecified)	1.0	-4%	-0.3	-25	-1%	-9%	-2%
CCOC(=O)N1CCN(C(=O)CSCc2ccc(Br)cc2)CC1	0.2	-1%	-0.6	1	-9%	-24%	4%
CCCOc1ccc(C(O)C(CN2CCOCC2)c2ccccc2)cc1 (stereo unspecified)	-0.7	0%	0.1	9	1%	-2%	7%

Compounds listed so far containing a thiophene ring, fused or not (three):
SMILES	CCT modulator	EPAC1 antagonist	IL2 activator	PI5P4Ka inh	EPAC1 agonist	PLK1 PBD inh	EPAC2 agonist
C=CCn1c(=S)[nH]c2scc(-c3ccco3)c2c1=O	0.8	?	1.8	-84*	0%	27µM*	-2%
Cc1cc(C(=O)CCC(=O)NNC(=O)c2ccccc2O)c(C)s1	0.3	1%	-1.0	?	2%	-11%	-3%
CN1Cc2sc(NC(=S)NC(=O)c3ccccc3)c(C#N)c2CC1(C)C	1.4	-21%	9.0	?	10%	13µM*	3%

New compounds follow
SMILES	CCT modulator	EPAC1 antagonist	IL2 activator	PI5P4Ka inh	EPAC1 agonist	PLK1 PBD inh	EPAC2 agonist
CCCS(=O)(=O)NC(=O)C1(C)CCCN(C(=O)c2ccccc2Br)C1 (stereo unspecified)	-5.0	7%	0.6	1	1%	-1%	3%
CCOc1ccc(CCNC(=O)c2nnc(CS(=O)(=O)c3ccccc3)o2)cc1OCC	-2.9	1%	-0.2	8	2%	-14%	6%
Cc1cccc(C(=O)N2CCC(C)(C(=O)NS(=O)(=O)C3CC3)C2)c1C (stereo unspecified)	-0.1	2%	2.2	5	3%	-1%	5%
COc1ccccc1Cc1c(-c2ccco2)nc2c3ccccc3ccn12	-5.5	2%	0.3	-9	1%	-3%	11%
O=C(CCN1CCOCC1)c1ccc(Br)cc1	-22	-6%	-1.0	-10	1%	12µM*	-5%
O=C(Nc1nc2ccccc2[nH]1)c1cc(F)cc(F)c1	0.5	8%	-0.1	-2	4%	-1%	9%
CC(=O)Nc1cc(-c2cccc(C(=O)NCCN(C)C)c2)cn2c(-c3ccc(C(C)=O)cc3)cnc12	-0.7	-5%	-0.5	3	10%	1%	8%
CCCCNC(=S)N/N=C/c1ccc(C#N)cc1	-4.2	-11%	-0.2	-73*	-2%	-16%	7%
COc1cccc(-c2cc(NC=O)c3ncc(-c4ccc(OC)c(OC)c4)n3c2)c1	-0.6	-1%	-0.8	-54*	-6%	-11%	9%
C=CCN1C(=O)N/C(=C/c2ccc(C)o2)C1=O	-1.1	-19%	-0.8	-14	-8%	?	1%
CCc1cc2c(NC3CCCC3)ncnc2s1	-1.6	-19%	-4.2	-5	-3%	6%	15%
CC(=O)Nc1cc(-c2cccc(CO)c2)cn2c(-c3ccc(F)cc3)cnc12	0.9	10%	-0.1	-14	-5%	-6%	3%
CCCN1CCc2c(sc(NC(=S)NC(=O)c3ccccc3)c2C#N)C1	-0.3	-3%	-0.1	?	15%	7.5µM*	-1%
C/C(=N/N=C1/NC(=O)CC(C(=O)O)S1)c1ccccc1 (stereo unspecified)	0.9	6%	-1.3	0	1%	5%	6%
O=C(CSc1nnc(C2CCCCC2)n1Cc1ccccc1)NCc1ccco1	1.6	-6%	-0.3	?	2%	27µM*	-9%
O=C(CCN1CCN(c2ccccc2F)CC1)c1ccc(Br)cc1	-1.5	-10%	-0.5	-11	-17%	8.4µM*	0%
Cc1ccc(Nc2nc(N)c([N+](=O)[O-])c(NCc3ccco3)n2)cc1C	-0.8	-15%	-5.4	-21	24%	-16%	3%
CN1C(=O)[C@H]2[C@@H](C3CC3)N3C(=O)CN(CCO)C(=O)[C@@]3(Cc3ccccc3)[C@H]2C1=O	-2.9	-8%	-2.1	-1	-7%	-17%	9%
C=CCNCCOCCOc1ccc(Cl)cc1C(C)(C)C	1.4	-6%	-3.6	9	-14%	2%	6%
CCOc1cc(/C=C2/NC(=O)N(CC(=O)Nc3cccc(C)c3)C2=O)ccc1OC	0.8	10%	0.6	-1	5%	-6%	3%

Profiles from above:
Shown for `CCCN1CCc2c(sc(NC(=S)NC(=O)c3ccccc3)c2C#N)C1` : CCT modulator = -0.3; EPAC1 antagonist = -3%; IL2 activator = -0.1; PI5P4Ka inh = ?; EPAC1 agonist = 15%; PLK1 PBD inh = 7.5µM*; EPAC2 agonist = -1%
Shown for `COc1ccc(/C=C/C(=O)OCC(=O)N2CCN(S(=O)(=O)c3ccc(C)cc3C)CC2)cc1OC` : CCT modulator = -0.9; EPAC1 antagonist = -13%; IL2 activator = 0.1; PI5P4Ka inh = -2; EPAC1 agonist = 6%; PLK1 PBD inh = -5%; EPAC2 agonist = 11%

(cont.)
SMILES	CCT modulator	EPAC1 antagonist	IL2 activator	PI5P4Ka inh	EPAC1 agonist	PLK1 PBD inh	EPAC2 agonist
CCc1cc2c(NC(Cc3ccccc3)C(=O)O)ncnc2s1 (stereo unspecified)	0.3	11%	0.0	-3	17%	0%	6%
Cc1cc(C(=O)CCC(=O)Nc2ncccc2O)c(C)s1	-2.4	14%	-3.7	-14	-4%	0%	4%
CN(CC(=O)NCC(=O)Nc1ccc(F)cc1)C1CCS(=O)(=O)C1 (stereo unspecified)	1.8	-26%	2.0	0	4%	1%	3%
COc1cccc(/C=C/C(=O)N2CCN(S(=O)(=O)c3ccccc3)CC2)c1	0.1	-5%	-4.2	5	8%	-14%	7%
Cc1ccc(NC(=O)CSc2ccc(-c3ccco3)nn2)cc1	0.0	6%	0.9	-16	9%	-11%	1%
Nc1ccc(S(=O)(=O)Nc2ccccn2)cc1	-1.5	-6%	0.0	4	-7%	-11%	5%
Cc1cc(NC(=O)CSc2nc3c(cc2C#N)CCCC3)no1	-2.5	-28%	-2.1	3	8%	-9%	-1%
Cc1onc(-c2ccccc2)c1C(=O)NC(=S)Nc1sc2c(c1C#N)CCCC2	-2.1	0%	-0.1	-20	1%	7.5µM*	10%
O=C(O)c1cnn2c1NC(c1ccc(F)cc1)CC2C(F)(F)F (stereo unspecified)	-1.3	-3%	-1.0	-1	2%	-8%	-5%
O=[N+]([O-])c1cccc(NNS(=O)(=O)c2ccccc2F)c1	-1.8	-20%	-1.2	?	0%	21µM*	-3%
Cc1ccc(NC(=O)CN2C(=O)N/C(=C/c3ccc4c(c3)OCCO4)C2=O)cc1	4.6	-10%	0.0	-2	3%	-9%	5%
COc1ccc(-c2nnc(-c3ccc4ccccc4c3)o2)cc1	-3.5	1%	-0.5	0	4%	-5%	0%
CC1(C)CC(C(CCN(Cc2ccccc2)C(=O)c2ccco2)c2ccc(F)cc2)CCO1 (stereo unspecified)	-0.2	?	-0.4	10	1%	0%	-5%
C=CCn1c(SCC(C)=O)nc2scc(-c3ccc(C)o3)c2c1=O	3.2	-18%	0.1	0	-7%	-3%	-4%
CCc1ccccc1NC(=O)/C(C#N)=C/c1ccc(Sc2ccccc2)o1	3.6	-3%	0.3	3	8%	-3%	20%
COc1ccc(-c2cc(C(F)(F)F)nc(S(C)(=O)=O)n2)cc1OC	-1.8	-3%	-3.8	·	-11%	?	-22%
COC(=O)C1=C(N)Oc2cc(C)n(CCN3CCOCC3)c(=O)c2C1c1cccnc1 (stereo unspecified)	-1.1	6%	-0.3	-2	-2%	-2%	2%
O=C(CCC(=O)c1cccs1)NNC(=O)c1ccccc1O	-0.3	-2%	-5.6	-52*	0%	-22%	8%
Cc1ccc(C2CC(C(F)(F)F)n3ncc(C(N)=O)c3N2)cc1 (stereo unspecified)	-4.6	-4%	0.5	10	8%	-1%	-2%
CCCCCOc1ccc(C(=O)C(c2ccccc2)N2CCOCC2)cc1 (stereo unspecified)	0.3	-12%	-1.4	7	12%	-1%	-2%

Shown as a hit in EPAC1 agonist, among the entries above:
SMILES	CCT modulator	EPAC1 antagonist	IL2 activator	PI5P4Ka inh	EPAC1 agonist	PLK1 PBD inh	EPAC2 agonist
CCOc1cc(/C=C2\CCCc3c2nc2ccccc2c3C(=O)O)ccc1OC	1.8	408%[activator]	-0.5	-1	100µM*	3µM*	100µM*

Screening results: PubChem, National Center for Advancing Translational Sciences (NCATS)
